Source: PubChem (Center for Chemical Genomics, University of Michigan)
CDC25B CDK2 inh = human CDC25B-CDK2/CyclinA binding inhibition; 94,000 compounds, 0.72% hits; P30305+P24941; HTRF CDC25B-CDK2/CyclinA binding, anti-His/anti-Flag; stronger effect = higher value; z-score (test concentration not listed); AID 1259370;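 note: score is relative to mean and SD of negative controls; strong numbers were not always called active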
HIV TAR-Tat = HIV-1 TAR-Tat binding disruption. HIV-1 TAR RNA, Tat peptide displacement FRET; stronger effect = higher value. z-score (test concentration not listed). 100,000 compounds, 0.6% hits. AID 1259389;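 note: score is relative to mean and SD of negative controls; some compounds called inactive have numbers as strong as hits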
The depositor's hits bear a star; nt = not tested or not shown; & = joins results of further samples.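 Rule for the calls: active = z-score from 3 up in half or more of its runs; inactive = the rest.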

Every second line gives: CDC25B CDK2 inh, HIV TAR-Tat
1	CC(C)c1ccc(OCc2cc(=O)n3ccsc3n2)cc1
 : -1.3, 0.51
2	OC(CNCc1ccc2c(c1)OCO2)COc1ccccc1 (configuration not stated)
 : -2.1, nt
3	COc1ccc(Cl)cc1NC(=O)c1nn(C)cc1[N+](=O)[O-]
 : 0.62, -0.18
4	O=C(CNC(=O)c1ccccc1F)c1ccc(Br)cc1
 : -6.8, nt
5	CCc1ccc(NS(=O)(=O)c2cc(-c3ccc(=O)[nH]n3)cc(C)c2C)cc1
 : nt, 1.4
6	CCn1c(C)c(C)c2cc(C(=O)NCC3CCCO3)ccc21 (configuration not stated)
 : nt, -2.1
7	Cc1ccc(C)c(C(=O)N(Cc2nc(-c3ccc(Cl)cc3)no2)C(C)C)c1
 : -0.54, nt
8	O=C(CSc1nc(=O)n(CCN2CCOCC2)c2c1CCC2)Nc1ccccc1Cl
 : nt, 1.2
9	COC(=O)c1c(C)[nH]c(C)c1/C=N/N=C/c1c(C)[nH]c(C)c1C(=O)OC
 : -2.2, nt
10	Cc1ccc(S(=O)(=O)c2nnn(-c3cc(C)cc(C)c3)c2C)cc1
 : -1.9, 1.7
11	Cc1ccc(CC2CC(=O)N(Cc3ccco3)C2=O)cc1 (configuration not stated)
 : -0.57, 0.36
12	COc1ccccc1OCCSc1nnc(-c2ccc3c(c2)OCCCO3)n1C
 : nt, 1.4
13	Cc1ccc(S(=O)(=O)c2cnc3ccccc3c2Nc2ccc3c(c2)OCCO3)cc1
 : 0.23, 2.3
14	O=C(c1nn2c(c1Br)NC(c1ccccc1)CC2C(F)(F)F)N1CCOCC1 (configuration not stated)
 : -1.1, 1.7
15	CC1CC(C)CN(c2nc3nonc3nc2Nc2ccc3c(c2)OCO3)C1 (configuration not stated)
 : -0.1, -3.6
16	O=C(CS(=O)(=O)c1ccc2c(c1)S(=O)(=O)N=CN2)Nc1ccc2c(c1)OCO2
 : nt, 0.16
17	CCN1CCN(c2nnc(-n3cccc3CNc3cc(Cl)c(OC)cc3OC)s2)CC1
 : nt, 0.85
18	COc1cc2cc3c4cc(OC)c(OC)cc4cc[n+]3c(C)c2cc1OC
 : nt, 1.9
19	Cc1cc2c(cc1S(=O)(=O)Nc1ccc3c(c1)OCCO3)OCC(=O)N2
 : nt, 1.4
20	COC(=O)CN1C(=O)CSc2ccc(S(=O)(=O)NCc3ccc(C)o3)cc21
 : nt, 1
21	CC(C)(CO)Nc1ncnc2onc(-c3ccc(F)cc3)c12
 : nt, 0.08
22	CS(=O)(=O)c1ccc(-c2ccc(NS(=O)(=O)c3ccccc3)cc2)nn1
 : nt, 0.52
23	Cc1ccc2c(c1)/C(=c1/sc3nc4ccccc4n3c1=O)C(=O)N2
 : -3.1, nt
24	Cc1ccc(C)c(Cn2cccc2CNC(=O)NC2CCCCC2)c1
 : -1.2, 0.31
25	COCCNC(=O)Cn1cnc2sc(C)cc2c1=O
 : nt, 2.4
26	Cn1c(=O)c2[nH]c(C3CCCC3)nc2n(C)c1=O
 : 0.03, -0.92
27	O=C(NNS(=O)(=O)c1cc(Cl)c(Cl)cc1Cl)c1cccnc1
 : -0.37, nt
28	Oc1cccc(N2Cc3ccccc3C2)c1
 : -1.1, -3.4
29	Cn1c(=O)n2ncnc2c2c3c(sc21)CCCC3
 : -0.78, nt
30	O=C(Nc1sc2c(c1C(=O)NCc1cccnc1)CCC2)c1csnn1
 : -1.1, 0.36
31	Nc1cc(-c2cccc(C(F)(F)F)c2)[nH]n1
 : -1.9, nt
32	CCOC(=O)Cn1ncn2c(c(-n3cccc3)c3c4c(sc32)CCCC4)c1=O
 : 0.53, -1.2
33	CCCN1CCN(C(=O)CCCN2C(=O)CCn3nc(C)cc32)CC1
 : nt, 0.15
34	CCCCC(=O)Oc1ccccc1C(=O)O
 : nt, 2.3
35	CCOc1ccccc1Nc1nc(-c2c(C)nc3sccn23)cs1
 : -0.53, nt
36	O=C1Nc2c(S(=O)(=O)Nc3ccccc3)cc(S(=O)(=O)Nc3ccccc3)c3cccc1c23
 : -0.81, -0.16
37	Cc1nc(C)c(-c2ccnc(-c3ccc(Cl)cc3)n2)s1
 : -1.8, nt
38	Cn1nnc2c(N(Cc3ccccc3)Cc3ccccc3)ncnc21
 : nt, 2
39	CN(C)c1ccc(-c2nc3n(n2)C(c2ccc(Cl)cc2)C2=C(CCCC2=O)N3)cc1 (configuration not stated)
 : -1.4, 0.69
40	COc1ccc(NC(=O)Nc2c[nH]c(=O)[nH]c2=O)c(OC)c1
 : nt, 2.4
41	CC[C@]12CCCN3CCc4c(n(c5ccccc45)C(=O)C1)[C@@H]32
 : nt, 1.8
42	COC(=O)C1=C(C)Nc2[nH]c(=O)[nH]c(=O)c2C1c1ccc(OCc2ccccc2)cc1 (configuration not stated)
 : 0.01, 1.3
43	COc1ccc(-c2onc(C)c2C)cc1S(=O)(=O)NCCSCc1ccco1
 : nt, -0.21
44	Cc1nc(N2CCOCC2)c2c(C(=O)N3CCCC3)c(C)oc2n1
 : nt, 0.45
45	CCOc1ccc(-c2cc(C(=O)O)c3c(-c4ccc(Br)cc4)[nH]nc3n2)cc1
 : nt, 1.3
46	COc1ccc(C2CC(=O)C3=C(C2)Nc2ccccc2NC3c2cccc3ccccc23)cc1 (configuration not stated)
 : -0.71, 0.28
47	O=C1C2C3C=CC(C3)C2C(=O)N1c1ccc(-c2ccnc(-c3ccc(N4C(=O)C5C6C=CC(C6)C5C4=O)cc3)n2)cc1 (configuration not stated)
 : -2.4, nt
48	CCOC(=O)N/N=C/c1c[nH]c2ccccc12
 : -3.4, nt
49	CC1=C(c2cccc(Cl)c2)S(=O)(=O)N=C1Nc1ccc(C)cc1C
 : -1.9, -0.06
50	CC(=O)N1CCCSc2ccc(S(=O)(=O)N3CCC(CN4CCc5ccccc5C4)CC3)cc21
 : nt, 0.16
51	COc1ccc(Br)cc1CNC(=O)Nc1cccs1
 : -1.4, -5.4
52	COc1ccc(S(=O)(=O)N2CCC(Oc3ccc(-n4cnnn4)cc3)CC2)cc1OC
 : -0.6, 0.41
53	Cc1ccc(NC(=O)Nc2nnc(CSCc3ccc(Cl)cc3Cl)s2)cc1
 : -2.8, nt
54	O=C(CSc1oc(-c2cccs2)nc1S(=O)(=O)c1ccc(F)cc1)Nc1ccc(F)cc1
 : -7.1, -2.2
55	CC(C)(C)C(=O)Cn1c(=O)n(CC2CCCO2)c(=O)c2ccccc21 (configuration not stated)
 : -1.3, nt
56	Cc1ccc2oc(Nc3nc(C)cc(C)n3)nc2c1
 : -1.3, -0.82
57	Cc1nn2c(=O)cc(CSc3ccc(Cl)cc3)nc2s1
 : -1.7, -0.04
58	O=C1CC(Nc2ccc(N3CCOCC3)cc2)C(=O)N1c1ccc(Cl)cc1 (configuration not stated)
 : 0.54, -2.5
59	CC1Cc2cc(S(=O)(=O)N3CCN(c4ccc(Cl)cc4)CC3)ccc2N1C(=O)C1CC1 (configuration not stated)
 : nt, 4.2
60	COC(=O)c1c(NC(=O)CSc2nnc3sc4ccccc4n23)sc(C)c1C
 : -2.5, nt

In the list so far, these have a furan ring, fused or not.
Every second line gives: CDC25B CDK2 inh, HIV TAR-Tat
11	Cc1ccc(CC2CC(=O)N(Cc3ccco3)C2=O)cc1 (configuration not stated)
 : -0.57, 0.36
20	COC(=O)CN1C(=O)CSc2ccc(S(=O)(=O)NCc3ccc(C)o3)cc21
 : nt, 1
43	COc1ccc(-c2onc(C)c2C)cc1S(=O)(=O)NCCSCc1ccco1
 : nt, -0.21
44	Cc1nc(N2CCOCC2)c2c(C(=O)N3CCCC3)c(C)oc2n1
 : nt, 0.45

(list continues)
Every second line gives: CDC25B CDK2 inh, HIV TAR-Tat
61	N#Cc1c(N)nc(SCc2ccccc2)c(C#N)c1-c1ccc(O)cc1
 : -0.48, nt
62	COC(=O)c1cc(S(=O)(=O)N2CCOCC2)oc1C
 : -0.81, nt
63	COc1ccccc1OCCn1cc(C(=O)O)c2ccccc21
 : -0.16, -0.04
64	COC(=O)C1=C(NC(=O)NC(=O)N(c2ccccc2)S(C)(=O)=O)CCS1
 : -2.5, 2.2
65	Cc1nc2c(C)cccn2c(=O)c1NC(=O)c1ccc(F)cc1
 : nt, 0.29
66	O=C(Cn1cnc(S(=O)(=O)N2CCCCC2)c1)Nc1cc(F)ccc1F
 : nt, -0.3
67	CCN1C(=O)C(O)(CC(=O)c2c(C)cc(C)cc2C)c2ccccc21 (configuration not stated)
 : -1, 1.6
68	CCCc1nc2sc(C(=O)OCC)c(N)c2c2c1COC(C)(C)C2
 : -2, 3
69	COc1cccc(C2C3=C(CC(c4ccccc4)CC3=O)Nc3ccccc3N2C(=O)C2CC2)c1 (configuration not stated)
 : -4.8, 2
70	Cc1ccc(-c2cc3nc4c(c(=O)n3[nH]2)CCCC4)cc1
 : 1.1, nt
71	Nc1ncnc2c1ncn2C1C[C@H](O)[C@@H](CO)O1 (some centres not stated)
 : nt, 1.7
72	O=C(NCC1CCCO1)c1ccc(Cn2c(SCc3cccc(F)c3)nc3cccnc32)cc1 (configuration not stated)
 : nt, 0.56
73	CSc1[nH]n2cc(-c3ccc(Cl)cc3)nc2c1S(=O)(=O)c1ccccc1
 : -2.3, -0.17
74	CCN(CC)CCNC(=O)C1=C(C)C(=O)OC12CCN(S(=O)(=O)c1cccs1)CC2
 : nt, 1
75	CN(CCCNC(=O)C1CCN(c2nn3c(=O)c4c(nc3s2)CCCC4)CC1)C1CCCCC1
 : nt, 1.6
76	O=C1CCCc2cc(S(=O)(=O)Nc3ccc(Cl)cn3)ccc2N1
 : nt, 1.1
77	Cc1ncc(CO)c2c1Oc1nc(-c3ccc(F)cc3)[nH]c(=O)c1C2
 : -1.7, 0.72
78	CCCCN1C(=O)C(O)(CC(=O)c2ccc(-n3cccc3)cc2)c2cc(Br)ccc21 (configuration not stated)
 : -1, 2.2
79	CC(=O)Oc1ccc(Br)cc1C1=NN(C(C)=O)C(c2nc3nc(C)cc(C)n3n2)O1 (configuration not stated)
 : nt, 0.88
80	Cc1noc2ncnc(NCc3cccnc3)c12
 : nt, -0.29
81	CCOCCOC(=O)C1=C(C)NC2=C(C(=O)CC(c3ccc(Cl)cc3)C2)C1c1ccc(O)cc1 (configuration not stated)
 : 0.33, 1.9
82	CCCOc1ccc(Oc2ncnc3sc(C)c(C)c23)cc1
 : nt, 0.13
83	c1coc(-c2nc3ccccc3n2CCC2CCCCC2)c1
 : 1.8, -7.2
84	COCCn1c(Cc2cccn2C)nnc1SCC(=O)Nc1nc(C)cs1
 : -1.2, -0.49
85	CCc1ccc(S(=O)(=O)N2CCCC2c2cccs2)cc1 (configuration not stated)
 : 0.46, -0.17
86	COc1ccc2cc(CCNC(=O)c3cc4ccccc4o3)c(=O)[nH]c2c1
 : -2, nt
87	Cc1ccc(NS(=O)(=O)c2ccc(-c3n[nH]c(C)c3C)s2)cc1C
 : nt, -0.44
88	CC(C)(O)CCSc1ccc([N+](=O)[O-])cn1
 : -1.2, nt
89	O=C(O)CCCN1CCN(Cc2ccccn2)C(=O)C1=O
 : nt, 1.6
90	COc1ccc(C2C3=C(CC(C)(C)CC3=O)NC3=C2C(=O)CC(C)(C)C3)cc1Cl
 : -0.13, -0.59

Some values from the results shown.
cpd 69 in HIV TAR-Tat reads 2
cpd 77 in HIV TAR-Tat reads 0.72
cpd 88 in CDC25B CDK2 inh reads -1.2
cpd 84 in HIV TAR-Tat reads -0.49
cpd 83 in HIV TAR-Tat reads -7.2
cpd 85 in HIV TAR-Tat reads -0.17

Remaining list, next part
Every second line gives: CDC25B CDK2 inh, HIV TAR-Tat
91	O=C(NC(NC(=S)Nc1cccc(C(=O)O)c1)C(Cl)(Cl)Cl)OCc1ccccc1 (configuration not stated)
 : 1.3, nt
92	COC(=O)C[C@H](NC(=O)[C@H](C)NC(=O)[C@@H](NC(=O)OCc1ccccc1)C(C)C)C(=O)CF
 : nt, 1.4
93	CC1=C(C(=O)Nc2cc(Cl)ccc2C(=O)NC2CCC(C)CC2)SCCO1 (configuration not stated)
 : nt, 1.1
94	CCOc1nc2ccc(C)cc2c(=O)o1
 : -0.46, nt
95	N=c1c[n+](N2CCOCC2)[n-]o1
 : -0.72&-1.7, nt
96	O=C(c1ccco1)N1CCN(c2nc3ccc(Cl)cc3n3cnnc23)CC1
 : 0.74, 1
97	Cc1cc(F)ccc1NC1c2ncccc2C(=O)N1c1ccccc1 (configuration not stated)
 : nt, 2
98	Cc1nnc(SCc2nc(-c3ccc(Cl)cc3)no2)n1-c1ccccc1
 : -1.1, 0.36
99	COc1ccc2nc(NC(=O)c3sc(C)nc3C)sc2c1
 : -1, 1.4
100	CCOCCCNC(=O)c1cnc2sc(N3CCCC3)nn2c1=O
 : nt, 1.8
101	S=C(S)N1CCCC1
 : -1.5, nt
102	COc1ccccc1N1C(=O)c2nccnc2C1=O
 : -1, -1.7
103	CC(=O)N1CCCc2cc(S(=O)(=O)N3CCCC(C(=O)N4CCc5ccccc54)C3)ccc21 (configuration not stated)
 : nt, 1.2
104	O=C(CCC(=O)N1Cc2ccccc2Oc2ncccc21)N1CCCC1
 : nt, 3
105	CCOC(=O)Cc1nnc(-c2ccc(Br)cc2)o1
 : -2.9, 3.5
106	CN(C)c1ccc(C(CNS(=O)(=O)c2cccs2)N2CCc3ccccc32)cc1 (configuration not stated)
 : nt, 1.4
107	Cc1cc(C)c(C(N)=O)c(SCC(=O)c2ccccc2)n1
 : -0.95, nt
108	CO[C@@]12[C@@H]3NC3CN1C1=C(C(=O)C(N)=C(C)C1=O)[C@@H]2COC(N)=O (some centres not stated)
 : nt, -0.09
109	CC1(C)Cc2c(C#N)c(NC3CCCCC3)nc(Cc3ccccc3)c2CO1
 : -2.4, 2.3
110	COc1ccc(-c2csc3ncnc(N4CCOCC4)c23)cc1
 : nt, 1.1
111	CCOC(=O)NC(=S)NCCc1ccccn1
 : -2, nt
112	CCOc1ccc(C2C(C(=O)OC3CCCCC3)=C(C)NC3=C2C(=O)C(C(=O)OC)C(C)C3)cc1 (configuration not stated)
 : -1.4, 2.5
113	COC(=O)CS(=O)(=O)c1cc(Br)cc2c1N(C(C)=O)CC2
 : nt, 1.9
114	Cc1nn(Cc2ccccc2)c(=O)c2noc(C)c12
 : nt, -1
